Screens as filed in PubChem BioAssay.
B2AR ag – activates human beta-2 adrenergic receptor causing internalization; P07550; response, % (concentration not given with the values); 0.43% of 340,000 active; AID 504454; Am2.2-beta2AR cells, FAP receptor internalization, flow cytometry; reference of the scale not given here;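 active means response above a set limit, near 3 SD of response in nonfluorescent compounds, cut at about 42% in these data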;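 further: stock transfer was 100 nL into about 11 µL; a reference agonist was the positive control; negative values mostly stem from fluorescent compounds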
Target sequence (P07550 whole entry, looked up): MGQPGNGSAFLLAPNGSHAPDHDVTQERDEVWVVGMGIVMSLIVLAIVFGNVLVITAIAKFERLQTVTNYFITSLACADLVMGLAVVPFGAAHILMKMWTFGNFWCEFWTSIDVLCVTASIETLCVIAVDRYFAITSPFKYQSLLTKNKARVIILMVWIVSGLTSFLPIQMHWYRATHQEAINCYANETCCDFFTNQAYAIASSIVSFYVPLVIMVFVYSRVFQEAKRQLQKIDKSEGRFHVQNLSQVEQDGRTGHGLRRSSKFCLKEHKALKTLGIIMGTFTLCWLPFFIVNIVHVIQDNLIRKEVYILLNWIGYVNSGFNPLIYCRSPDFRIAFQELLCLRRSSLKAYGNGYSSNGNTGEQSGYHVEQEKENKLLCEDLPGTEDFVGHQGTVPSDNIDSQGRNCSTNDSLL
HNF4A DNA FP – change in binding of human HNF4 alpha to DNA. P41235. 0.3% of 360,000 active. HNF4a-FITC DNA binding, fluorescence polarization, 1 h. activity change, % at 10 µM; in the data active means activity change above about 30%, passing the limit was not always enough;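 further: controls were the assay level and a saturating level of protein; the project sought stronger binding though the title names inhibitors; some compounds called inactive have numbers as strong as hits; positive values seem to mean higher polarization but the record does not say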
Target sequence (P41235 whole entry, looked up): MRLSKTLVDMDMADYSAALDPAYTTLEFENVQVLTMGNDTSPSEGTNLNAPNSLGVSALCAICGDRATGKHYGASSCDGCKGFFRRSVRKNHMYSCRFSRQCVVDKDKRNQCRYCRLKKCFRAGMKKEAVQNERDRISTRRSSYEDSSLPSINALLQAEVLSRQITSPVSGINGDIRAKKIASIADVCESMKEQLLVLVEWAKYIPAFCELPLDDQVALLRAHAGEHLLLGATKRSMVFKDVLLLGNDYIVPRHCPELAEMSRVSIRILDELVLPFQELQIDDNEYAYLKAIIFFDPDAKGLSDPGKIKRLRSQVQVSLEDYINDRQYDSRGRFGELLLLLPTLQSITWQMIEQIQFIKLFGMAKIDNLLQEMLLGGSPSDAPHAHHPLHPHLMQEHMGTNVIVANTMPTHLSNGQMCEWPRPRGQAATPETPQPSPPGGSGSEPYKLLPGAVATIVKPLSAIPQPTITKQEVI
rRNA inh HTS – selective bacterial rRNA inhibition in E. coli; E. coli WT GFP vs humanized-ribosome RFP mutants, fluorescence, 24 h; active compounds read low; DMSO median 0, no signal -100; GFP signal change (wild-type ribosome), % (concentration not given with the values); 1.6% of 350,000 active;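 active means significant combined selectivity score with lowered wild-type GFP, culture density cut under 30%, mutant RFP and density less affected; inactive means any of these conditions unmet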; further: one replicate is shown; some compounds called inactive have numbers as strong as hits
UCH37 DUB inh – inhibitors of human deubiquitinating enzyme UCH37; Q9Y5K5; purified proteasome/UCH37, Ub-AMC cleavage fluorescence; inhibition, % (no concentration beside the values); 0.33% of 330,000 active;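 active means mean of two replicates above 20%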;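 further: 0% = compound-free wells with enzyme and 100% = wells lacking proteasome; stock transfer was 100 nL into about 20 µL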
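Material: human UCH37 enzyme supplied as purified proteasome complex / Amount: 0.15 nM proteasome as dispensed / Buffer or medium: pH 7.4 Tris-HCl (50 mM) with ovalbumin, ATP-MgCl2, DTT / Times: preincubation 30 min, reaction 25 min, room temperature / Technique: AMC fluorescence from Ub-AMC cleavage, excitation 355 nm, emission 460 nm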
FGF22 binding – binders of recombinant human FGF22 by thermal shift | calls only at 9.99 µM | AID 651658 | 1.5% of 340,000 active | SYPRO orange fluorescence; percent of sucrose octasulfate shift, DMSO zero;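 active means melting point raised past a set limit in the mean and every replicate; three in four hits are not shown here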
ALR H2O2 inh – inhibitors of human sulfhydryl oxidase ALR; purified ALR, DTT oxidation, H2O2 HRP-luminol luminescence; inhibition, % (test concentration not listed); 3.8% of 290,000 active;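 active means mean and each replicate at 75% or more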;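 further: stock transfer was 7.5 nL into about 7.5 µL; 0% = neutral wells and 100% = wells with inactivated enzyme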
E coli growth – inhibitors of Escherichia coli growth. OD600, 23 h; active compounds read low. OD600 absorbance (concentration not given with the values). 0.21% of 330,000 active;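 active means OD600 absorbance below the run mean of sample wells minus 3.6 SD, in any replicate, cut at about 0.56 in these data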;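 further: stock transfer was 300 nL into about 60 µL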
rRNA inh HTS OD600 – recorded beside rRNA inh HTS, whose call it bears; OD600 change, %; measured here: OD600 growth;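 optical density of the mix in the first replicate; 0 = DMSO median and -100 = no signal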
rRNA inh HTS RFP – also measured in rRNA inh HTS; calls as there; RFP signal change, %; measured here: RFP humanized mutant strains;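 first replicate; 0 = DMSO median and -100 = no signal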
Active calls of the source: *; i = inactive; . = not tested or not shown; & = joins results of further samples.

Results follow in this order: rRNA inh HTS RFP, ALR H2O2 inh, UCH37 DUB inh, rRNA inh HTS OD600, B2AR ag, HNF4A DNA FP, rRNA inh HTS, FGF22 binding, E coli growth
1: COc1cc(OC)cc(C2=Cc3ccccc3C(CC(C)=O)N2c2ccc(C#CCCO)cc2)c1 (stereo unspecified)
  1.8, ., ., 1, ., 4.0, 8, i, .
2: O=C(NCCN1C(=O)C2C3C=CC(C3)C2C1=O)Nc1ccc(Br)cc1 (stereo unspecified)
  1.2, -2, -0.1, 3, -2, -4.9, 5, i, 0.75
3: CC(C)(C)NC(=O)C(c1ccncc1)N(Cc1cccs1)C(=O)Cn1nnc(-c2cccs2)n1 (stereo unspecified)
  ., -15, 1.9, ., 3, 5.3, ., ., 0.74
4: CCn1nc(C)cc1-c1n[nH]c(=S)n1N
  ., 1, 4.6, ., -3, 1.1, ., ., 0.68
5: COc1ccc(CNS(=O)(=O)c2cc(Br)cc3c2N(C(C)=O)C(C)C3)cc1 (stereo unspecified)
  2.5, -5, -3.7, -6, 7, 0.5, -2, i, 0.63
6: CC(Sc1nncn1-c1ccccc1)C(=O)Nc1cccc([N+](=O)[O-])c1 (stereo unspecified)
  ., ., 0.0, ., -5, 0.6, ., i, 0.69
7: O=C(COc1ccc(Br)cc1Br)NC(=O)NC1CCCC1
  -3.0, -2, -1.8, -43, -5, 2.8, -32, i, 0.69
8: CC(C)(O)C#Cc1ccc(C(=O)N2CCN(c3ccc(F)cc3)CC2)cc1
  -5.1, 14, 3.4, -4, 5, -2.0, -4, i, 0.63
9: CC1(C(=O)N(CC(=O)NC2CCCC2)Cc2ccccc2)CC(=O)N=C2C=CC=CN21 (stereo unspecified)
  0.2, -3, -376, 14, 3, -3.1, 13, ., 0.71
10: C=CCOC(=O)N1CCC2CC1c1c(-c3ccc(C(F)(F)F)cc3)cccc12 (stereo unspecified)
  -0.9, ., ., 12, ., -2.0, 2, i, .
11: CCOC(=O)C1CCN(S(=O)(=O)c2ccccc2)CC1
  -1.6, ., 0.1, 2, -3, 1.1, 1, i, 0.65
12: COc1cc(-c2cc(N3C(=O)Nc4ccccc4N3O)n[nH]2)cc(OC)c1OC
  ., 14, 4.3, ., -4, 0.2, ., ., 0.65
13: O=C(CCNS(=O)(=O)c1ccccc1)OCc1ccc([N+](=O)[O-])cc1
  -1.2, ., ., 8, ., -0.9, 3, i, .
14: N#Cc1nc(-c2ccccc2F)oc1NCc1ccccc1
  -7.2, 11, -60, -49, -16, 0.4, -36, i, 0.68
15: Cc1cccc(NC(=O)CSc2nnc(-c3ccc(S(=O)(=O)N4CCOCC4)cc3)n2C)c1
  ., ., 0.9, ., -1, 0.6, ., ., 0.71
16: O=S(=O)(NCC1CCCO1)c1ccc(Cl)cc1 (stereo unspecified)
  2.6, 1, -0.5, 8, 1, 1.9, 9, i, 0.68
17: CCN(Cc1cc2cc(C)ccc2[nH]c1=O)C(=O)c1cccc([N+](=O)[O-])c1
  3.1, -6, 5.8, 9, 3, 0.1, 11, i, 0.68
18: Cc1cc(C(=O)Nc2cccc3c2O[C@@H](CN(C)S(C)(=O)=O)[C@H](C)CN([C@@H](C)CO)C3=O)n(C)n1
  0.6&0.0, ., 1.2, 6&1, -1, 1.0, 3&6, i, .
19: O=C(Nc1nnc(-c2ccc(F)cc2)o1)c1ccc(S(=O)(=O)N2CCOCC2)cc1
  ., 0, 3.5, ., 6, 3.5, ., ., 0.69
20: COc1ccc(OCCCC(=O)Nc2nnc(C3CCCO3)s2)cc1 (stereo unspecified)
  ., -29, 2.8, ., 2, 0.0, ., ., 0.68
21: O=C1NCCc2onc(-c3ccc(Br)cc3)c21
  -4.0, ., ., -2, ., -0.6, -11, i, .
22: NS(=O)(=O)c1ccc(NC(=S)NCc2ccccc2Cl)cc1
  ., -2, ., ., 0, -1.9, ., ., .
23: COc1ccc(NS(=O)(=O)c2cc3c4c(c2)C(C)C(=O)N4CCC3)cc1 (stereo unspecified)
  4.2, -3, 3.0, 7, 9, 0.4, 14, i, 0.71
24: CCc1ccc2[nH]c3nc(N/N=C/c4cccc(O)c4)nnc3c2c1
  -0.2, ., ., 6, 6, 0.0, 1, i, .
25: CC(C)CNC(=S)N1CCC(C(=O)c2ccc(F)cc2)CC1
  -2.2, ., 1.7, 2, 0, -0.6, -2, i, 0.68
26: CN(C)Cc1c(O)ccc2c(=O)c(-c3ccc(Cl)cc3)coc12
  -2.0, 11, -374, 2, 1, -1.2, 3, i, 0.66
27: CCOC(=O)N1CCN(C(=O)CCSc2ccc(Cl)cc2)CC1
  ., ., 0.3, ., -2, 0.6, ., ., 0.71
28: CCOC(=O)/C(C(=O)Nc1ccccc1Cl)=C1/NC(C)(C)Cc2ccccc21
  -2.1, -1, 1.9, 2, -5, 3.2, 8, i, 0.71
29: CCNc1nc(NCC)n2c(SCC(=O)c3ccccc3Cl)nnc2n1
  -7.9, 22, 2.8, 10, -4, 5.1, 11, i, 0.68
30: N#Cc1cccc(Cn2cc(C(F)(F)F)ccc2=O)c1
  3.4, ., 3.7, 13, 5, -2.0, 17, i, 0.7

Record cards, as listed above. Screens in order: rRNA inh HTS RFP, ALR H2O2 inh, UCH37 DUB inh, rRNA inh HTS OD600, B2AR ag, HNF4A DNA FP, rRNA inh HTS, FGF22 binding, E coli growth
Record of CC(C)CNC(=S)N1CCC(C(=O)c2ccc(F)cc2)CC1 : -2.2, ., 1.7, 2, 0, -0.6, -2, i, 0.68
Record of COc1ccc(CNS(=O)(=O)c2cc(Br)cc3c2N(C(C)=O)C(C)C3)cc1 (stereo unspecified) : 2.5, -5, -3.7, -6, 7, 0.5, -2, i, 0.63
Record of O=C1NCCc2onc(-c3ccc(Br)cc3)c21 : -4.0, ., ., -2, ., -0.6, -11, i, .
Record of O=C(NCCN1C(=O)C2C3C=CC(C3)C2C1=O)Nc1ccc(Br)cc1 (stereo unspecified) : 1.2, -2, -0.1, 3, -2, -4.9, 5, i, 0.75
Record of CCOC(=O)N1CCN(C(=O)CCSc2ccc(Cl)cc2)CC1 : ., ., 0.3, ., -2, 0.6, ., ., 0.71

The results go on.
Results follow in this order: rRNA inh HTS RFP, ALR H2O2 inh, UCH37 DUB inh, rRNA inh HTS OD600, B2AR ag, HNF4A DNA FP, rRNA inh HTS, FGF22 binding, E coli growth
31: O=C(c1ccncc1)N1CCCC(N2CCN(c3cccc(C(F)(F)F)c3)CC2)C1 (stereo unspecified)
  -0.5, 0, 5.6, 0, -2, 4.5, 1, i, 0.7
32: O=C(CN1CCN(S(=O)(=O)c2ccc(Cl)c(Cl)c2)CC1)N1CCCCC1
  1.2, ., -1.2, -10, 0, -1.1, -3, i, 0.66
33: CC(=O)c1ccc(NC(=S)NC(C)c2ccc(Cl)cc2Cl)cc1 (stereo unspecified)
  -11*, ., 1.2, -23*, 6, 0.9, -49*, i, 0.6
34: Cc1nc(C(=O)N2CCC(n3nccc3NC(=O)Nc3ccccc3Cl)CC2)cs1
  -3.4, 1, 1.5, 10, -11, 0.7, 8, i, 0.66
35: Cc1ccc(-n2nc3c(c2NC(=O)c2ccccc2)CS(=O)(=O)C3)cc1C
  -4.6, 1, 2.0, 2, 8, 9.5, -1, i, 0.69
36: CCOC(=O)C1CCN(CC(=O)Nc2ccc(OC)c(S(=O)(=O)N3CCCCC3)c2)CC1
  6.1, -9, 5.3, 2, 12, 3.9, 1, i, 0.72
37: CC1=CCC2C(=O)N(c3ccc(C(=O)N4CCCCCC4)cc3)C(=O)C2C1 (stereo unspecified)
  ., -1, 2.4, ., -1, 0.3, ., ., 0.72
38: CCN(CC(=O)Nc1c(F)cccc1F)C(=O)CN1c2cccc3cccc(c23)S1(=O)=O
  0.5, -6, -52, 16, 13, 3.6, 13, i, 0.62
39: CSc1ccc(CN2C(=O)NC3(CCCCCCC3)C2=O)cc1
  -3.9, -5, 2.8, -36, 7, 2.1, -18, ., 0.67
40: COc1cc(NC(=S)NC(C)=O)ccc1NC(=O)C(C)C
  ., 2, 1.2, ., -7, -1.3, ., ., 0.63
41: CS(=O)(=O)N(CC(=O)Nc1ccc2c(c1)OCO2)c1ccc2c(c1)OCO2
  ., -9, 2.9, ., 19, 0.3, ., ., 0.7
42: O=C(NNC(=O)C1[C@H]2CCCC[C@@H]12)NC1CCCCC1 (stereo partly specified)
  -2.4, 5, 7.5, 5, -7, -2.1, 7, i, 0.7
43: O=C(O)c1ccc(N2C(=O)CSC2=S)cc1
  6.9, 63, 2.7, 15, -3, 4.8, 13, i, 0.65
44: Cc1c(Br)c([N+](=O)[O-])nn1CC(=O)c1ccccc1
  -1.5, 1, 0.6, 2, 2, -0.3, -1, i, 0.65
45: NC(=O)c1nsc(C(=O)N(CC(=O)NCc2ccc3c(c2)OCO3)C2CCCCC2)c1N
  ., -4, -44, ., 4, -3.0, ., ., 0.73
46: Cc1ccc(-c2nn(-c3ccc(F)cc3)cc2C(=O)N2CCN(C3CCS(=O)(=O)C3)CC2)cc1 (stereo unspecified)
  -0.2, -2, -0.6, 13, 7, -0.8, 15, i, 0.71
47: Cc1ccc(C)c(N2CCN(S(=O)(=O)c3ccc4c(c3)NC(=O)CS4)CC2)c1
  -0.1, -13, 2.1, -16, 16, 3.3, 4, i, 0.71
48: O=C(c1ccc2c(c1)OCO2)N1CCC2(CC1)Oc1ccc(F)cc1C(=O)C21CC(c2ccc(Cl)cc2)=NO1 (stereo unspecified)
  2.7, 4, 0.1, 19, 0, 0.9, 13, i, 0.71
49: COC(=O)c1cc(-c2c(C)oc3cc(O)ccc3c2=O)c(C)o1
  -1.7, 3, -320, -6, -1, 3.9, 0, ., 0.71
50: CCc1ccc2c(c1)C(=O)C(=O)N2CCS(=O)(=O)c1ccccc1
  2.3, -3, 2.7, 0, 3, 3.1, -1, i, 0.7
51: N#CC1=C(N)Oc2c(oc(CO)cc2=O)C1c1cccs1 (stereo unspecified)
  ., -24, 1.3, ., 2, 2.0, ., ., 0.7
52: Cc1ccc(C(=O)N/C(=C/c2cccnc2)C(=O)O)cc1
  -6.2, -2, 1.4, 12, 1, 4.1, 5, i, 0.65
53: Cc1cc2oc(=O)cc(-c3ccccc3)c2c(C)c1-c1ccc(C(F)(F)F)cc1
  0.8, ., 1.3, 9, 6, -0.5, 15, i, 0.68

An excerpt from above in order of the rRNA inh HTS RFP value, rising.
Results follow in this order: rRNA inh HTS RFP, ALR H2O2 inh, UCH37 DUB inh, rRNA inh HTS OD600, B2AR ag, HNF4A DNA FP, rRNA inh HTS, FGF22 binding, E coli growth
35: Cc1ccc(-n2nc3c(c2NC(=O)c2ccccc2)CS(=O)(=O)C3)cc1C
  -4.6, 1, 2.0, 2, 8, 9.5, -1, i, 0.69
31: O=C(c1ccncc1)N1CCCC(N2CCN(c3cccc(C(F)(F)F)c3)CC2)C1 (stereo unspecified)
  -0.5, 0, 5.6, 0, -2, 4.5, 1, i, 0.7
47: Cc1ccc(C)c(N2CCN(S(=O)(=O)c3ccc4c(c3)NC(=O)CS4)CC2)c1
  -0.1, -13, 2.1, -16, 16, 3.3, 4, i, 0.71

Only part of the results is shown. The share of hits here may be higher or lower than overall.
